STK33 inh: blocks human STK33 kinase activity | purified STK33, MBP phosphorylation, ADP-Glo luminescence | Q9BYT3 | AID 2661 | 0.073% of 320,000 active | inhibition, % at 10 µM;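 active = inhibition at or above 25%, using the most active replicate where run in duplicate; inactive = inhibition below 25%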
Target sequence (Q9BYT3 whole entry, looked up): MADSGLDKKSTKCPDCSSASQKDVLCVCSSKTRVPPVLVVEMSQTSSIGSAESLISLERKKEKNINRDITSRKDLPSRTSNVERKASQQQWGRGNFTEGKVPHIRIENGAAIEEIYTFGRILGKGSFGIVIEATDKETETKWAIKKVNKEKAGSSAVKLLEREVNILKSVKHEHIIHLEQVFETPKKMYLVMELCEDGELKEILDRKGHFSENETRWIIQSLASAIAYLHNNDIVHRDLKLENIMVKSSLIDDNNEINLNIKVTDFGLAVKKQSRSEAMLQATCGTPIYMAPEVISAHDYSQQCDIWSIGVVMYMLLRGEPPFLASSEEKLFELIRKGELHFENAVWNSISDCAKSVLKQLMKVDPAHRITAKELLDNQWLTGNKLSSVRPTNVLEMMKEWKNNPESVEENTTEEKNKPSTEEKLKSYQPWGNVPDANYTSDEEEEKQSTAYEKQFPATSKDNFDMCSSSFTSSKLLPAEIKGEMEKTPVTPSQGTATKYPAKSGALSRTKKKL
* hit, by the source's call. A portion of the library, and most or all hits are left out here.

How did CCC(Oc1ccc(C)c(C)c1)C(=O)N1CCCN(C)CC1 (stereo not drawn) do in these assays?
STK33 inh: -1.3

What do the screens show for `COc1nn(C(C)C(=O)N2N=C(C(F)F)CC2(O)C(F)F)cc1[N+](=O)[O-]` (stereo not drawn)?
STK33 inh: -1.5

Results for Cc1ccc(-c2csc(C3C(N)=NC(S)=C(C#N)C34CCCCC4)n2)cc1 (stereo not drawn) ?
STK33 inh: -3.6

Results for Cc1nc(SCc2nc3c(C)cccc3[nH]2)c2oc3ccccc3c2n1 ?
STK33 inh: -1.5

Results for Cc1ccc(NS(=O)(=O)c2ccc(CCC(=O)NCCCOC(C)C)cc2)cc1 ?
STK33 inh: -1.9

How did Fc1ccccc1-c1nc(-c2ccncc2)no1 do in these assays?
STK33 inh: 1.2

What do the screens show for `CSCC[C@H](NC(=O)C(C)Oc1ccc(Cl)cc1)c1nc2ccccc2[nH]1` (stereo partly drawn)?
STK33 inh: -1.0

Results for CCOc1ccc(N(CC(=O)Nc2c(C)n(C)n(-c3ccccc3)c2=O)S(=O)(=O)c2ccccc2)cc1 ?
STK33 inh: -0.5

Results for CCN(C(=S)NC(=O)c1ccccc1Br)C1CCCCC1 ?
STK33 inh: -1.6

How did Cc1ccc(C(=O)OCC(=O)Nc2sc3c(c2C#N)CCCC3)cc1NC(=O)c1ccco1 do in these assays?
STK33 inh: -0.6

Results for Cn1c(=O)n(C)c2cc(N3CCCCC3)c(NC(=O)c3cccc(Cl)c3)cc21 ?
STK33 inh: 10.4

How did CC(=O)Nc1nc2ccc(S(=O)(=O)N3CCCCC3)cc2s1 do in these assays?
STK33 inh: 0.5

Results for O=S1(=O)N=C(SCCO)c2ccccc21 ?
STK33 inh: -2.1

What do the screens show for `OCCNc1ccc(Cl)cc1`?
STK33 inh: -1.7

What do the screens show for `COc1cc(NC(=O)CN2CCN(c3ccccc3F)CC2)c(C)cc1[N+](=O)[O-]`?
STK33 inh: -0.1

Results for Cn1c(N2CCOCC2)cc(=O)n(C)c1=O ?
STK33 inh: 0.5

Results for CCN(C(=O)COC(=O)CC(C)c1ccccc1)c1c(N)n(Cc2ccccc2)c(=O)[nH]c1=O (stereo not drawn) ?
STK33 inh: -0.8

How did CC(O)CNc1nc(Cl)c(C#N)s1 (stereo not drawn) do in these assays?
STK33 inh: -1.4

Results for CS(=O)(=O)N(Cc1ccc(C(=O)NN=C2CCCCCC2)cc1)c1ccccc1 ?
STK33 inh: -0.8

How did Cc1ccc2c(c1)C(=O)CCCCC(=O)N2 do in these assays?
STK33 inh: 0.3

Results for C/C(=N\NC(=O)Cc1cccn1C)c1ccco1 ?
STK33 inh: -0.9

What do the screens show for `CC1=Nc2ccccc2N=C(NC(=O)c2ccccc2)C1c1ccc(Cl)cc1` (stereo not drawn)?
STK33 inh: 1.1

What do the screens show for `O=C(Nc1ccc(F)c(F)c1)c1cc(S(=O)(=O)N2CCN(c3ccccn3)CC2)ccc1F`?
STK33 inh: -0.9

Results for COc1ccc(C(=O)CSC#N)cc1OC ?
STK33 inh: -0.3

How did O=C(NCCN1CCCCC1)c1ccc(=O)oc1 do in these assays?
STK33 inh: 0.4

What do the screens show for `Cc1ccc(/C=C/C(O)=C2/C(=O)N(C)C3(C)CC2c2ccccc2O3)cc1` (stereo not drawn)?
STK33 inh: -0.2

How did COc1ccc(Nc2nc(C)cc(C)c2C(N)=O)cc1OC do in these assays?
STK33 inh: -2.4

How did CN(Cc1ccccc1)S(=O)(=O)c1nnc(NC(=O)c2ccccc2)s1 do in these assays?
STK33 inh: -1.0

Results for C/C(N)=C(/C#N)C(=O)CSc1n[nH]c(-c2cccs2)n1 ?
STK33 inh: 0.8

Results for C/C(CC(=O)NC1CCCCC1)=N\NC(=O)COc1ccc(C)cc1Br ?
STK33 inh: 0.5

Results for CC(=O)NC1=NC(=O)/C(=C/N2CCOCC2)S1 ?
STK33 inh: -0.1

What do the screens show for `CCN1CCN(S(=O)(=O)c2ccc(OC)c(Br)c2)CC1`?
STK33 inh: -0.4

Results for COc1ccc(NC(=O)COC(=O)C2CCN(S(=O)(=O)c3ccccc3)CC2)cc1Cl ?
STK33 inh: -0.1

What do the screens show for `CN(C(=O)COC(=O)C1COc2ccccc2O1)c1c(N)n(Cc2ccccc2)c(=O)[nH]c1=O` (stereo not drawn)?
STK33 inh: -0.3

How did COc1ccc(CCC(=O)OCC(=O)NCc2ccc3c(c2)OCO3)cc1 do in these assays?
STK33 inh: -0.8

What do the screens show for `COC(=O)C1=C(C)N(CCCC(=O)O)C(=O)NC1c1cc2c(cc1[N+](=O)[O-])OCO2` (stereo not drawn)?
STK33 inh: -1.0

Continued (seven carried over from the part before).
Results for C/C(CC(=O)NC1CCCCC1)=N\NC(=O)COc1ccc(C)cc1Br ?
STK33 inh: 0.5

Results for CC(=O)NC1=NC(=O)/C(=C/N2CCOCC2)S1 ?
STK33 inh: -0.1

What do the screens show for `CCN1CCN(S(=O)(=O)c2ccc(OC)c(Br)c2)CC1`?
STK33 inh: -0.4

Results for COc1ccc(NC(=O)COC(=O)C2CCN(S(=O)(=O)c3ccccc3)CC2)cc1Cl ?
STK33 inh: -0.1

What do the screens show for `CN(C(=O)COC(=O)C1COc2ccccc2O1)c1c(N)n(Cc2ccccc2)c(=O)[nH]c1=O` (stereo not drawn)?
STK33 inh: -0.3

How did COc1ccc(CCC(=O)OCC(=O)NCc2ccc3c(c2)OCO3)cc1 do in these assays?
STK33 inh: -0.8

What do the screens show for `COC(=O)C1=C(C)N(CCCC(=O)O)C(=O)NC1c1cc2c(cc1[N+](=O)[O-])OCO2` (stereo not drawn)?
STK33 inh: -1.0

How did CC(C)(C)NC(=O)NC(=O)CN1CCN(S(=O)(=O)c2ccc3c(c2)CCCC3)CC1 do in these assays?
STK33 inh: 1.2

Results for COCCn1c(SCC(=O)Nc2cc(OC)ccc2OC)nc2c(c1=O)SC(C)C2 (stereo not drawn) ?
STK33 inh: -2.4

What do the screens show for `O=C1c2cnc3nc(SCc4ccc(Cl)cc4)nn3c2CC2c3ccccc3CCN12` (stereo not drawn)?
STK33 inh: 0.0

How did COC(=O)CNc1nc(-c2ccncc2)nc2ccccc12 do in these assays?
STK33 inh: 0.2

Results for Cc1ccc(NC(=O)C2CC2C)cc1S(=O)(=O)N1CCOCC1 (stereo not drawn) ?
STK33 inh: -0.7

How did COc1ccc(CCNS(=O)(=O)c2ccc3c(c2)CC(C)N3C(C)=O)cc1OC (stereo not drawn) do in these assays?
STK33 inh: -0.3

Results for COc1ccc2oc(C(=O)OCC(=O)Nc3cc(S(=O)(=O)N4CCOCC4)ccc3OC)c(C)c2c1 ?
STK33 inh: -0.7

What do the screens show for `Cc1ccccc1CN(CC1CCC(C(=O)O)CC1)C(=S)Nc1ccccc1F` (stereo not drawn)?
STK33 inh: 0.4

What do the screens show for `Cc1ccc(OCCCSc2ncccn2)cc1C`?
STK33 inh: -2.0

How did Cc1ccc(S(=O)(=O)CCC(=O)c2ccc(F)cc2)cc1 do in these assays?
STK33 inh: -1.2

How did CC(C)CNC(=S)NC1CCCC1 do in these assays?
STK33 inh: -2.3

Results for O=S(=O)(Nc1nc2ccccc2nc1NCC1CCCO1)c1cc(Cl)ccc1Cl (stereo not drawn) ?
STK33 inh: 0.2

What do the screens show for `CC1C/C(=N\Nc2ccc(S(N)(=O)=O)cc2[N+](=O)[O-])CC(C)(C)C1` (stereo not drawn)?
STK33 inh: -0.5

What do the screens show for `O=S(=O)(Nc1ccc(S(=O)(=O)N2CCCC2)cc1)c1ccc(F)cc1`?
STK33 inh: 0.0

Results for O=S1(=O)CCOC[C@H](Cc2ccccc2)N1Cc1ccc(F)cc1 ?
STK33 inh: 3.0

How did O=C(COC(=O)/C=C/c1cccs1)Nc1ccc(F)cc1 do in these assays?
STK33 inh: -0.5

What do the screens show for `Cc1cc(C)n(S(=O)(=O)c2cc(C(=O)O)c(Cl)cc2Cl)n1`?
STK33 inh: -2.0

What do the screens show for `O=C(Nc1ccc(C(F)(F)F)cc1Cl)c1ccc(Cn2cc(Br)cn2)o1`?
STK33 inh: -2.2

What do the screens show for `CC(C)(C)c1ccc(C(=O)NCCCn2ccnc2)cc1`?
STK33 inh: -1.5

What do the screens show for `Cc1ccccc1NC(=O)Cc1ccccc1`?
STK33 inh: -1.8

How did CC(=O)Nc1cccc(NC(=O)CCN2C(=O)c3ccccc3S2(=O)=O)c1 do in these assays?
STK33 inh: 1.4

How did COc1ccc(C)cc1NC(=O)c1nn(C)cc1Br do in these assays?
STK33 inh: 0.0

How did O=C(NCc1cccnc1)C1CCN(C(=O)c2ccc(Cl)cc2Cl)CC1 do in these assays?
STK33 inh: -0.5

What do the screens show for `COc1ccc(-c2cc3ccccc3n2CC(O)CN2CCC(C)CC2)cc1` (stereo not drawn)?
STK33 inh: 0.8

What do the screens show for `Cc1cc(S(=O)(=O)N2CCOCC2)ccc1OCC(=O)N1CCCC1`?
STK33 inh: 0.0

How did Cc1ccc(NC(=O)CSc2ncc3ccccn23)cc1C do in these assays?
STK33 inh: 0.0

Results for Cc1cc(C)cc(OCc2nc(-c3cccnc3)no2)c1 ?
STK33 inh: 0.2

What do the screens show for `CCOC(=O)c1c(NC(=O)C2CCN(S(=O)(=O)c3cccs3)CC2)sc(C)c1C`?
STK33 inh: -0.9

Results for CCN(CC)CCNc1nc2cc(OC)c(OC)cc2c2nc(-c3ccccc3)nn12 ?
STK33 inh: 0.3

Results for O=[N+]([O-])c1ccc(CN2CCSCC2)cc1 ?
STK33 inh: 0.1

Results for COc1ccc2oc(C(=O)OCC(=O)NC3CCCCC3)c(C)c2c1 ?
STK33 inh: -1.0

How did CC(=O)Oc1ccc(N2C(=O)CC(N3CCOCC3)C2=O)cc1 (stereo not drawn) do in these assays?
STK33 inh: 2.4

How did COc1ccc(CN2C(=O)c3ccccc3C2=O)cc1C(=O)Nc1ccccc1N1CCOCC1 do in these assays?
STK33 inh: -0.9

How did Cc1cc(C)c2nc(-c3ccccn3)cc(C(=O)Nc3ccc(S(=O)(=O)Nc4onc(C)c4C)cc3)c2c1 do in these assays?
STK33 inh: 1.6

What do the screens show for `CC(=O)C(C)Oc1cc(C)cc2oc(=O)c(C)c(C)c12` (stereo not drawn)?
STK33 inh: 0.0

Results for COc1cc2c(C(=O)O)c(C)n(-c3ccccc3)c2c2ccccc12 ?
STK33 inh: -1.2

What do the screens show for `Cc1ccc(S(=O)(=O)N2CCOCC2)cc1C(=O)OCc1nnc(-c2ccccc2)o1`?
STK33 inh: 0.2

What do the screens show for `O=C(COC(=O)COc1ccc(Cl)cc1)NC1CCCC1`?
STK33 inh: -0.9

How did O=C(Nc1cccc(C2OCCCO2)c1)c1cccs1 do in these assays?
STK33 inh: -1.4

Results for CC(C)c1ccc(C(CC(=O)O)NC(=O)c2cccs2)cc1 (stereo not drawn) ?
STK33 inh: -0.9

How did Cc1ccc2cc(/C=N/NC(=O)c3ccccc3O)c(Cl)nc2c1 do in these assays?
STK33 inh: -0.9

What do the screens show for `COC(=O)[C@@H]1C[C@@H]2CC[C@@H](O)C[C@@H]2N1Cc1ccccc1OS(=O)(=O)c1ccc(C)cc1`?
STK33 inh: 0.0

How did Cc1noc(C)c1COC(=O)c1ccccc1Sc1ccccc1C#N do in these assays?
STK33 inh: 0.7

How did O/N=C/c1ccccc1OCc1ccc(Cl)cc1 do in these assays?
STK33 inh: 1.1

How did Cc1ccccc1N=C1Nc2ccccc2CS1 do in these assays?
STK33 inh: -0.4

What do the screens show for `COC(=O)c1c(C)[nH]c(C(=O)OCC(=O)NC(C)(C)C)c1C`?
STK33 inh: -3.2

Results for CN(C(=O)c1cccnc1)c1nnc(-c2cnccn2)s1 ?
STK33 inh: 0.6

How did O/N=C(/CCc1ccccc1)C1(O)CCCCC1 do in these assays?
STK33 inh: -3.4

What do the screens show for `COC(=O)c1cc(Br)c(=O)n(CCc2ccccc2)c1`?
STK33 inh: -1.8

What do the screens show for `CCC(C)[C@H](NC(=O)[C@@H]1Cc2ccccc2CN1)C(=O)Nc1ccc2c(c1)OCO2` (stereo partly drawn)?
STK33 inh: -0.6

How did CC(=O)c1ccc(NC(=O)COC(=O)Cn2cnc3ccccc32)cc1 do in these assays?
STK33 inh: -0.7

Results for C=CCn1c(COc2ccc(Cl)cc2)nnc1SCc1ccc(C#N)cc1 ?
STK33 inh: 3.6

How did CCCCNC(=O)/C=C/c1ccc(OC)c(Br)c1 do in these assays?
STK33 inh: -0.6

How did O=C(Nn1c(SCc2ccccc2F)nc2ccsc2c1=O)c1ccccc1 do in these assays?
STK33 inh: -1.1

Results for COc1ccc(S(=O)(=O)N(C)C[C@@H]2Oc3c(NS(=O)(=O)c4cn(C)cn4)cccc3C(=O)N([C@@H](C)CO)C[C@@H]2C)cc1 ?
STK33 inh: 0.0

How did S=c1[nH]nc(COc2ccc3ccccc3c2)o1 do in these assays?
STK33 inh: -0.6

How did CC(=O)Nc1ccc(S(=O)(=O)N2CCCC2C(=O)Nc2ccc3c(c2)OCCO3)cc1 (stereo not drawn) do in these assays?
STK33 inh: -1.7

Results for CCOC(=O)C1(Cc2ccccc2Cl)CCN(C(=O)c2cnccn2)CC1 ?
STK33 inh: -0.7

Results for COc1ccc([C@@H]2[C@@H]3C(=O)N(C(C)(C)C)C(=O)[C@@H]3[C@]3(Cc4ccccc4)C(=O)N(c4cccc(Cl)c4)C(=O)N23)cc1 ?
STK33 inh: -0.2

Results for CC(C)NC(=O)C(c1ccc(F)cc1)N(C(=O)CCC(=O)Nc1ccccn1)C1CCCC1 (stereo not drawn) ?
STK33 inh: -0.2

Results for O=C1c2ccccc2NC2CCCCCN12 (stereo not drawn) ?
STK33 inh: 0.6

What do the screens show for `Cc1ccc(NC(=O)COC(=O)c2ccc([N+](=O)[O-])s2)c(C)c1`?
STK33 inh: -0.2

What do the screens show for `CC(C)NC(=O)c1ccccc1NC(=O)C1COc2ccccc2O1` (stereo not drawn)?
STK33 inh: -1.0

How did CCOC(=O)c1c(C)[nH]c(C)c1C(=O)COC(=O)[C@@H]1CCCN1S(=O)(=O)c1ccc(Cl)cc1 do in these assays?
STK33 inh: -0.2

Some of these compounds in order of length of the SMILES, rising.
Results for O=C1c2ccccc2NC2CCCCCN12 (stereo not drawn) ?
STK33 inh: 0.6

What do the screens show for `CC(C)NC(=O)c1ccccc1NC(=O)C1COc2ccccc2O1` (stereo not drawn)?
STK33 inh: -1.0

Results for CC(C)NC(=O)C(c1ccc(F)cc1)N(C(=O)CCC(=O)Nc1ccccn1)C1CCCC1 (stereo not drawn) ?
STK33 inh: -0.2

How did CCOC(=O)c1c(C)[nH]c(C)c1C(=O)COC(=O)[C@@H]1CCCN1S(=O)(=O)c1ccc(Cl)cc1 do in these assays?
STK33 inh: -0.2

From PubChem BioAssay
